EPAC2 antag = Validation qHTS for antagonist of cAMP-regulated guanine nucleotide exchange factor 4 (EPAC2); Rap guanine nucleotide exchange factor 4 (Homo sapiens), Q8WZA2; EPAC2 Rap1B BODIPY-GDP exchange, fluorescence; Potency, µM (top dose mostly 112 µM), for the others: top-dose activity, negative = inhibition, hits mostly inhibitors; actives 1.7% (n = 16,000); AID 1645886, 2021; active = well fitted inhibition curve with a large enough effect; inconclusive = small, poorly fitted or top-dose-only effect; inactive = no such curve, though single readings can be large or run the other way;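 also: 100% = activation by cAMP agonist control; nearly all actives have a fitted effect of over 40% in size; the record reuses the description of the EPAC1 agonist screen; inactives centre near -10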
Target sequence (Q8WZA2 whole entry, looked up): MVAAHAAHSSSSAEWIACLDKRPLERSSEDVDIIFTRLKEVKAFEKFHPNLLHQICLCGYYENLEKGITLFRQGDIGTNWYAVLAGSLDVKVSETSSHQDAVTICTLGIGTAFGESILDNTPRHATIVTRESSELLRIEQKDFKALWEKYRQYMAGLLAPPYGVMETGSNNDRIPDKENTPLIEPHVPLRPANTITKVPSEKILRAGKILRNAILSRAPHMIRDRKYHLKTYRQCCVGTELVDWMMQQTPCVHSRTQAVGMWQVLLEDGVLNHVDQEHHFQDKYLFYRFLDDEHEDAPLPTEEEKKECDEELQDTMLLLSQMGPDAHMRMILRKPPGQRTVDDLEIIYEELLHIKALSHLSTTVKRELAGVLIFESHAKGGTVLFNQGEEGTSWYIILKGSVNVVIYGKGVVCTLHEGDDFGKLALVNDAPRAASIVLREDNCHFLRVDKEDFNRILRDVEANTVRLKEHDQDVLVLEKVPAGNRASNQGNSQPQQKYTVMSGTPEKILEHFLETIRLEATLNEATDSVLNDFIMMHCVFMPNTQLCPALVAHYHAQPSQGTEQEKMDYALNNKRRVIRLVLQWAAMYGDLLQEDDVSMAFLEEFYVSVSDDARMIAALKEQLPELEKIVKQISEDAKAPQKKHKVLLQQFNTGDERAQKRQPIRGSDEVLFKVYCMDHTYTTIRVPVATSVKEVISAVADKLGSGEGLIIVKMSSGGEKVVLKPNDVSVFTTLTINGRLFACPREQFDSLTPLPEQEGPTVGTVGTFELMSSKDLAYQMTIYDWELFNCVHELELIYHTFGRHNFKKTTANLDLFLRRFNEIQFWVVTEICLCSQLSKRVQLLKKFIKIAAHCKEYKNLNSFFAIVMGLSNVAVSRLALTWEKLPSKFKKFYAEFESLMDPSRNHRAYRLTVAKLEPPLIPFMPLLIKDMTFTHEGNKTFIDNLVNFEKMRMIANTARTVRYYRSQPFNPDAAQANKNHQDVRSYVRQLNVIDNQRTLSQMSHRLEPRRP
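Fluorescent exchange read-out: 100 nM EPAC2 with 250 nM RAP1B–BODIPY-GDP and 50 uM GDP; BODIPY-GDP release lowers fluorescence. Read at 480/540 nm every 5 min for 30 min at room temperature; normalized to 6.5 mM cAMP.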
The depositor's hits bear a star; ? = inconclusive; & = joins results of further samples; [ ] = dose if it differs, or a comment. Potency is read from the fitted curve at half-maximal effect. The list is partial (hit frequency here may not be typical).

SMILES	EPAC2 antag
CC[C@H](C)[C@H](NC(=O)[C@H](C)NC(=O)[C@H](CC(N)=O)NC(=O)[C@H](CCCCN)NC(=O)[C@H](Cc1ccccc1)NC(=O)[C@H](CC(C)C)NC(=O)[C@@H](NC(=O)[C@@H](NC(=O)[C@H](CC(C)C)NC(=O)[C@@H]1CCCN1C(=O)[C@@H](NC(=O)[C@H](CCC(N)=O)NC(=O)[C@H](CO)NC(=O)[C@H](CCCCN)NC(=O)[C@H](CCC(=O)O)NC(=O)[C@H](CO)NC(=O)[C@@H](NC(=O)[C@H](CCSC)NC(=O)[C@H](Cc1ccccc1)NC(=O)CNC(=O)CNC(=O)[C@@H](N)Cc1ccc(O)cc1)[C@@H](C)O)[C@@H](C)O)C(C)C)[C@@H](C)O)C(=O)N[C@H](C(=O)N[C@@H](CCCCN)C(=O)N[C@@H](CC(N)=O)C(=O)N[C@@H](C)C(=O)N[C@@H](Cc1ccc(O)cc1)C(=O)N[C@@H](CCCCN)C(=O)N[C@@H](CCCCN)C(=O)NCC(=O)N[C@@H](CCC(=O)O)C(=O)O)[C@@H](C)CC	-1%[11.4 µM]
NC(=O)NS(=O)(=O)c1ccc(N)cc1	-1%
O=C1NCN(c2ccccc2)C12CCN(CCCC(c1ccc(F)cc1)c1ccc(F)cc1)CC2	-22%
CC[N+](C)(C)c1ccc(/C=C/c2ccncc2)cc1	?
O=C(c1csnn1)N1CCC2(CCN(Cc3cc(C(F)(F)F)cc(C(F)(F)F)c3)CC2)CC1	?
N#CCCn1c(=O)c(-c2ccc(F)cc2)nc2cnc(N3CCNCC3)nc21	2%
CC(=O)c1ccc2oc3ccccc3c(=O)c2c1	18%
OC[C@H]1NC[C@@H](O)[C@@H](O)[C@H]1O	-2%
Oc1ccc(Cn2cc[nH]c2=S)cc1	4%
Cc1cc2cc3c(C)cc(=O)oc3c(C)c2o1	-9%[56.6 µM]
O=C(C[n+]1cccc2cccc(O)c21)c1ccc(Cl)cc1	-15%
C#CCn1c(=O)c2c(ncn2C)n(C)c1=O	-14%&-13%
N[C@@H](COP(=O)(O)O)C(=O)O	?
NC(=S)NCCC[C@H](N)C(=O)O	3%
CC(=O)OC1CC(OC(C)=O)[C@]2(C)C(CC(OC(C)=O)[C@@]3(C)C4=CC(=O)OC(c5ccoc5)[C@]4(C)CCC32)C1(C)C (some centres undefined)	-19%
COc1ccccc1C(=O)N(Cc1cc2cccc(C)c2nc1N1CCC(O)CC1)C1CC1	-12%
Clc1cccc(C=NC=Nc2cccc(Cl)c2)c1	-25%
COCCNc1ncnc2ccc(-c3ccccc3C)cc12	?
CN(CCO)C(=O)c1cn(C2CCCN(Cc3cccc4ccccc34)C2)nn1 (centres undefined)	-16%
O=C(O)Cc1ccc(O)c(O)c1	-3%&20%

Continued (6 carried over from the part before).
SMILES	EPAC2 antag
CC(=O)OC1CC(OC(C)=O)[C@]2(C)C(CC(OC(C)=O)[C@@]3(C)C4=CC(=O)OC(c5ccoc5)[C@]4(C)CCC32)C1(C)C (some centres undefined)	-19%
COc1ccccc1C(=O)N(Cc1cc2cccc(C)c2nc1N1CCC(O)CC1)C1CC1	-12%
Clc1cccc(C=NC=Nc2cccc(Cl)c2)c1	-25%
COCCNc1ncnc2ccc(-c3ccccc3C)cc12	?
CN(CCO)C(=O)c1cn(C2CCCN(Cc3cccc4ccccc34)C2)nn1 (centres undefined)	-16%
O=C(O)Cc1ccc(O)c(O)c1	-3%&20%
C/C=C1\[C@H]2C=C(C)C[C@]1(N)c1ccc(=O)[nH]c1C2	3%
CN(C)c1ccc(-c2ccc3ncnc(N(C)C)c3c2)cc1	-7%
COc1ccc(S[C@@H](CCN2CC[C@H](O)CCC2=O)c2ccccc2)cc1	-14%
COc1c2ccoc2nc2c(OC)c(O[C@@H]3O[C@H](C)[C@@H](O)[C@@H](O)[C@H]3O)ccc12	18%
CC(C)CCCC(C)N (centres undefined)	8%
CC(C)(S)C(=O)N[C@@H](CS)C(=O)O	3%&2%
COc1ccc(NC(=O)N2CCCC3(CCN(C(=O)c4cnccn4)CC3)C2)cc1	-12%
CC(C)C[C@@H](CO)N1CCNCCC1=O	-3%
COC(=O)c1c(OC)cc2c(c1C)Oc1c(Cl)c(OC(C)=O)c(Cl)c(C)c1C(=O)O2	11µM*
Cc1c(CC(C)(C)C(=O)O)n(Cc2ccc(Cl)cc2)c2ccc(F)cc12	45µM*
C[Se]CC[C@H](N)C(=O)O	20%
CN1C(C)(C)CCCC1(C)C	-16%
CCC[C@H]1COCCS(=O)(=O)N1Cc1ccc(Br)cc1	?
O=C(Oc1ccccc1)N1CCC2(CC1)CCN(c1ccccc1)CC2	?
COc1cccc(-c2cc(NCc3ccccc3)ncn2)c1	-29%
Cc1cnc2ccc3ccccc3c2c1C	-6%
Cn1c(=O)c(-c2ccc(Cl)cc2)nc2cnc(Oc3ccccc3)nc21	-28%
CCN(CC)CCSC(=O)C(c1ccccc1)c1ccccc1	1%&25%
Oc1ccc(C2CNCc3sccc32)cc1O (centres undefined)	-1%
N#CCCn1c(=O)c(CCc2ccccc2)nc2cnc(Oc3ccccc3)nc21	-26%

7 entries drawn at random from those above, as already listed:
SMILES	EPAC2 antag
C[Se]CC[C@H](N)C(=O)O	20%
CC(C)C[C@@H](CO)N1CCNCCC1=O	-3%
CC(=O)OC1CC(OC(C)=O)[C@]2(C)C(CC(OC(C)=O)[C@@]3(C)C4=CC(=O)OC(c5ccoc5)[C@]4(C)CCC32)C1(C)C (some centres undefined)	-19%
CCC[C@H]1COCCS(=O)(=O)N1Cc1ccc(Br)cc1	?
Cn1c(=O)c(-c2ccc(Cl)cc2)nc2cnc(Oc3ccccc3)nc21	-28%
O=C(O)Cc1ccc(O)c(O)c1	-3%&20%
C#CCn1c(=O)c2c(ncn2C)n(C)c1=O	-14%&-13%

The results go on.
SMILES	EPAC2 antag
COc1ccc(NC(=O)N2CC3(CCN(C(=O)c4cc(C(F)(F)F)cc(C(F)(F)F)c4)CC3)C2)cc1	?
N[C@@]1(C(=O)O)CN[C@H](C(=O)O)C1	-21%
CN1CCN(c2cc(-c3ccoc3)ncn2)CC1	-9%
C(=C1C=c2ccccc2=C1)c1ccc(N=Nc2ccc(C=C3C=c4ccccc4=C3)cc2)cc1	9%
COc1ccc(OC)c(/C=C/c2cc3ccccc3cn2)c1	-2%
C=C1CCC(O)C/C1=C\C=C1/CCCC2(C)C1CCC2C(C)/C=C/C(C)C(C)C (centres undefined)	50µM*
Cc1ncc([N+](=O)[O-])n1CCO	-15%
CN(C)c1ncc2nc(-c3ccccc3)c(=O)n(C3CC3)c2n1	?
C#CCCCCCCCCCCCC(=O)CC(O)COC(C)=O (centres undefined)	-3%
Cc1cc(=O)c(C(=O)NCCc2ccccn2)c2n1-c1ccccc1SC(c1cccs1)C2 (centres undefined)	-2%
Cc1cccc(CNc2ncncc2-c2cccnc2)c1	-35%
COc1ccc(-c2ccc(C(=O)NCC3Cc4cccc(-c5nc(C)cnc5C)c4O3)o2)cc1 (centres undefined)	-11%
CC(=O)N(Cc1ccc2c(c1)OCO2)Cc1cc2ccc(C)cc2nc1-c1cccc(C)c1	?
O=C(O[C@H]1CN2CCC1CC2)N1CCc2ccccc2[C@@H]1c1ccccc1	10%
COCCNc1ccnc(-c2ccccc2C(F)(F)F)n1	-25%
CSCCC(N)C(=O)NC(CC(C)C)C(=O)NC(Cc1ccccc1)C(=O)O (centres undefined)	-7%
CC(=O)c1ccccc1-c1ccc2c(c1)CC(CNC(=O)c1ccnc(Cl)c1)O2 (centres undefined)	?
CC(=O)NCCNc1nc(-c2ccccc2CN(C)C)nc2ccccc12	-11%
C[C@H]1CCC(=O)N([C@H](CSc2ccccc2)Cc2ccccc2)CC1	?
COc1ccc(OC)c(/C=C/c2ccnc3ccccc23)c1	?
CC12C(=O)OC(=O)C1(C)C1CCC2O1 (centres undefined)	-11%
COc1ccc2[nH]cc(CCNc3cc(-c4ccoc4)ncn3)c2c1	-26%
NCCCNCCCCN(CCCN)/[N+]([O-])=N/O	?
CO[C@@]1(NC(=O)Cc2cccs2)C(=O)N2C(C(=O)O)=C(COC(N)=O)CS[C@@H]21	-2%&15%
CN(C)C(=O)c1ccc(-c2nc(NCc3ccccc3)c3ccccc3n2)cc1	-9%
Nc1ncnc2c1nc(Br)n2C1OC(CO)C(O)C1O (centres undefined)	-11%
CN1C(=O)CCC1c1cccnc1 (centres undefined)	-18%&-11%
CC[N+]1(CC)CCC(=C(c2ccccc2)c2ccccc2)C1C (centres undefined)	26%
Nc1c(N=Nc2ccc(-c3ccc(N=Nc4cc(S(=O)(=O)O)c5ccccc5c4N)cc3)cc2)cc(S(=O)(=O)O)c2ccccc12	40µM*
CCOC(=O)C[C@H]1c2ccc(C(F)(F)F)cc2S(=O)(=O)N1C(C)(C)C	-16%
COCC(=O)Nc1cc(C(=O)N2CCN(c3ccccc3)CC2C)c2c(c1)nc(-c1ccncc1)n2C (centres undefined)	1%
CCNc1ncc2nc(-c3ccc(F)cc3)c(=O)n(CCC#N)c2n1	-2%
CCCCN1C[C@H](C)[C@@H](CC(=O)NCc2ccccc2)C1=O	-10%
Nc1nc(N)c2nc(CNc3ccc(C(=O)N[C@@H](CCC(=O)O)C(=O)O)cc3)cnc2n1	10%
CC(C)(CO)[C@@H](O)C(=O)NCCCC(=O)O	-17%
Cc1cnc(-n2ncc(C(=O)NCCN3CCOCC3)c2C(C)C)nc1-c1ccc(F)cc1	-16%
COc1ccc(F)c(CN2CCOc3ccc(CN4CCC(Oc5cccnc5)CC4)cc3C2)c1	-15%
O=C(c1ccc(C(F)(F)F)cc1)N(Cc1cc2ccc(F)cc2nc1N1CCOCC1)C1CC1	-16%
COc1ccc2c(c1)CCC1C2CC[C@@]2(C)C1CC[C@@H]2NCCCCCCN1C(=O)CCC1=O (some centres undefined)	-2%
COc1ncc2nc(C)c(=O)n(C[C@H]3CCCO3)c2n1	-22%
Cc1cccn2c(=O)c(-c3nnn[nH]3)cnc12	5%
CCC(=O)OCC(=O)[C@@]1(OC(=O)CC)[C@@H](C)C[C@H]2[C@@H]3CCC4=CC(=O)C=C[C@]4(C)[C@@]3(Cl)[C@@H](O)C[C@@]21C	-18%
Cc1cccc(CNc2ncnc3ccc(-c4ccc(C(=O)N(C)C)cc4)cc23)c1	-25%
COC(=O)[C@H]1[C@H]2CC3c4[nH]c5ccccc5c4CCN3C[C@@H]2CC[C@@H]1O (some centres undefined)	-5%
O=C(c1csnn1)N1CCC2(CCCN(c3ccccc3)C2)CC1	?
COc1ccccc1-c1ccc(C(=O)N(C)C(C)c2ccon2)c(N2CCN(c3ccccc3F)CC2)n1 (centres undefined)	-17%
CC1(C)S[C@@H]2[C@H](NC(=O)[C@H](N)c3ccccc3)C(=O)N2[C@H]1C(=O)O	11%
CN(C)CC(C)(C)CNC(=O)c1cnn(-c2ncc3c(n2)-c2ccccc2CC3)c1-c1ccco1	-21%
COc1cccc(Nc2ncc3nc(-c4ccccc4)c(=O)n(C)c3n2)c1	-2%
COc1cccc(Cn2c(=O)c(-c3cccs3)nc3cnc(OC)nc32)c1	-4%

Carrying on:
SMILES	EPAC2 antag
CC(=O)N1CCC[C@H]1C(=O)N1CCc2c(cnc(C)c2CNC(=O)/C=C/c2cccs2)C1	?
O=C(c1cc(C(F)(F)F)cc(C(F)(F)F)c1)N1CCC[C@@]2(CCN(Cc3ccccc3)C2)C1	?
c1cncc(CNc2ncncc2-c2ccc3c(c2)OCO3)c1	-12%
Cc1cccc(CN2Cc3cccc4c3[C@H](C=CC4)CC2=O)c1	32µM*
Cc1ccc(S(=O)(=O)NC(=O)NN2CCCCCC2)cc1	?
CCC1CN(CCNC(=O)c2cccc(C(=O)OC)c2)Cc2cc(OC)ccc2O1 (centres undefined)	-5%
COC(=O)c1ccc(CN2CCOc3ccc(CN4CCC(O)(c5cccnc5)CC4)cc3C2)cc1	8%
CC(=O)OCOC(=O)CN(CC(=O)OCOC(C)=O)c1ccccc1OCCOc1ccccc1N(CC(=O)OCOC(C)=O)CC(=O)OCOC(C)=O	?
CCCCCCCCCCC(CO)CCCCCCCC (centres undefined)	2%
N=C(C[C@@H](O)COc1ccccc1-c1ccccc1)N1CCCCC1	-13%
C[S+](CC[C@H](N)C(=O)O)C[C@H]1O[C@@H](n2cnc3c(N)ncnc32)[C@H](O)[C@@H]1O (some centres undefined)	38%&17%[activator]
O=C(CCN1Cc2ccccc2OC(c2ccccc2)C1)N[C@@H]1CS(=O)(=O)C[C@H]1O (some centres undefined)	1%
COc1ccc(C2(C(=O)NCC3Cc4cccc(-c5nc(C)cnc5C)c4O3)CCCC2)cc1 (centres undefined)	-21%
O=C(/C=C/C(=O)Oc1ccccc1C(=O)O)Oc1ccccc1C(=O)O	-17%
[N-]=[N+]=N[C@@H](CCN1CC[C@H](NC(=O)OCc2ccccc2)CCC1=O)c1ccccc1	?
CSc1ccc(-c2ccc(C(=O)NCC3CCCO3)c(N3CCC(O)CC3)n2)cc1 (centres undefined)	-4%
Cc1ccc2c(CC(=O)N3CCOc4ccc(CN5C[C@@H](C)O[C@@H](C)C5)cc4C3)cc(=O)oc2c1	?
CCNc1ncc2nc(-c3cc(F)cc(F)c3)c(=O)n(C)c2n1	-29%
COc1ccccc1CN1CCOc2ccc(C(C)(O)COc3ccccc3)cc2C1 (centres undefined)	-21%
CC(C)CN1CCCC2(CCN(C(=O)c3csnn3)CC2)C1	-14%

Source: PubChem
